Compound activity deposited in PubChem by ICCB-Longwood Screening Facility, Harvard Medical School.
MgrA-DNA mod: S. aureus MgrA activity modulators, primary screen, biochemical, S. aureus Newman, fluorescence polarization; MgrA-DNA binding; inhibition, %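 (about 10 µg/mL by stock and volumes)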; 84,000 tested, 0.13% active;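 active = above 50% in either of two replicates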;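 also: 0% = protein plus DNA without compound and 100% = DNA alone without protein; higher means less MgrA bound to DNA so lower polarization; one replicate is shown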
Sa helicase inh: inhibitors of S. aureus replicative helicase, primary screen, biochemical, fluorescence unwinding readout | AID 485395, 2010 | purified S. aureus helicase, fluorescence unwinding assay; about half of the hits fall short of the stated cut | 120,000 tested, 0.05% active | replicative DNA helicase (DnaC/DnaB), Staphylococcus aureus | inhibition, %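 (tested at about 80 µM)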;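 active = both duplicates at 50% or more, or one of them with a favoured structure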;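 also: 0% = mean of negative control wells and 100% = mean of positive control wells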
* = called active by the depositor; nt = not tested or not shown; & = joins results of further samples. Not all compounds are listed (hit frequency here may not be typical).

#	compound	MgrA-DNA mod	Sa helicase inh
1	O=C(/C=C/c1ccc(Cl)cc1)N1CCN(C(=O)c2ccco2)CC1	-4.7	-19.0
2	CC1CN(c2ncnc3scc(-c4ccccc4)c23)CC(C)O1 (stereo not given)	nt	-11.0
3	CNC(=O)/C=C1\N(C)c2ccccc2C1(C)C	-2.4	-38.0
4	CC(C)OCc1ccc(C(=O)O)cc1	nt	-9.0
5	Cc1cc(/C=C(/C#N)S(C)(=O)=O)c2c(C)ccc(C(C)C)cc1-2	-0.4	nt
6	CSC(=S)n1c(=Nc2ccccc2)sc2ccccc21	-0.8	5.0
7	CC1=CC(=O)NC2C=CC=CC12 (stereo not given)	-1.1	19.0
8	O=C(Cn1c(C(F)(F)F)nc2ccccc21)Nc1ccccc1C(=O)O	-1.0	nt
9	CCCc1cc(NCCCN(CC)CC)n2c(nc3ccccc32)c1C#N	nt	43.0
10	COc1ccc(OC)c(NS(=O)(=O)c2ccccc2)c1	-0.5	-5.0
11	Cc1cccc(-c2nnc(SCc3ccc(C#N)cc3)n2CC(N)=O)c1	nt	-5.0
12	N#Cc1ccc(NC(=O)c2ccc(Br)o2)cc1	-6.8	14.0
13	Cc1oc2cc(OCC(=O)O)ccc2c(=O)c1-c1ccc2c(c1)OCCO2	nt	2.0
14	CCCNC(=O)NCc1n[nH]c(=O)c2ccccc12	nt	9.0
15	CC(C)(C)OC(=O)N1CCC[C@H]1C(=O)OCc1cc(=O)n2cc(Br)ccc2n1	nt	5.0
16	COc1ccc(CCNC(=O)COc2cc(=O)n(C)c3ccccc23)cc1OC	0.7	-10.0
17	Cn1c(SCc2cc(=O)[nH]c(=O)[nH]2)nnc1C(F)(F)F	nt	4.0
18	CCc1ccc(/C=C2\SC(=S)N(CCCC(=O)Nc3cccnc3)C2=O)cc1	nt	1.0
19	N#Cc1ccc(NC(=O)COC(=O)CN2CSCC2=O)cc1	nt	-8.0
20	CCCCc1c(-c2ccccc2)nc(N)c(C#N)c1-c1ccc(O)c(OC)c1	-2.7	-3.0
21	Cc1ccc2oc(-c3ccc(N(C)C)cc3)cc(=O)c2c1	nt	-228.0
22	CCCCN(Cc1ccco1)C1=NC(Cc2ccccc2)C(=O)N1c1ccc(C)cc1C (stereo not given)	nt	23.0
23	O=C(NC1(C(F)(F)F)NC(=O)N(c2ccc(F)cc2)C1=O)c1ccco1 (stereo not given)	-1.4	9.0
24	COc1cc(CNC(C)(C)C)ccc1OCC(=O)NC(C)(C)C	0.1	12.0
25	CN(C)c1ccc(C(=C2C=CC(=[N+](C)C)C=C2)c2ccc(N(C)C)cc2)cc1	20.5	nt

Arranged by molar mass (lowest first): three of the compounds above
#	compound	MgrA-DNA mod	Sa helicase inh
17	Cn1c(SCc2cc(=O)[nH]c(=O)[nH]2)nnc1C(F)(F)F	nt	4.0
13	Cc1oc2cc(OCC(=O)O)ccc2c(=O)c1-c1ccc2c(c1)OCCO2	nt	2.0
16	COc1ccc(CCNC(=O)COc2cc(=O)n(C)c3ccccc23)cc1OC	0.7	-10.0

(list continues)
#	compound	MgrA-DNA mod	Sa helicase inh
26	CC(O)c1ccccc1-c1ccccc1C(C)O (stereo not given)	-0.3	nt
27	CCN(CC)C(=O)Sc1cccc2cccnc12	-0.6	6.0
28	CC(Sc1nnc(-c2cccs2)n1C1CC1)C(=O)NCC1CCCO1 (stereo not given)	nt	-9.0
29	Cc1nc2sc3c(c2c(=O)n1N)CCCC3	nt	1.0
30	CCOC(=O)c1ccc(NC(=O)c2ccc[n+]([O-])c2)cc1	1.2	-16.0
31	c1ccc(-n2ncc3c(SCCC4OCCO4)ncnc32)cc1	nt	-16.0
32	CN1C(=O)CSC1=Nc1cccc(C(=O)O)c1	-0.5	0.0
33	Cc1[nH]c(C(=O)N2CCCCC2)c(C)c1C(=O)NC1CCCCC1	nt	-1.0
34	N#Cc1nc(COc2ccc(Cl)cc2)oc1NCCc1ccccc1	-1.1	12.0
35	CCN=C1NN=C(c2c[nH]c3ccccc23)CS1	nt	-9.0
36	CCN(CC)Cc1cccc2c1COC2	nt	6.0
37	CCOC(=O)c1[nH]c2ccc(OC)cc2c1NC(=S)N1CCOCC1	-1.1	7.0
38	CCc1nnc(NC(=O)COC(=O)CN2C(=O)c3ccccc3C2=O)s1	nt	13.0
39	O=C(O)c1ccccc1C(=O)NC1CCCCNC1=O (stereo not given)	-5.9	nt
40	CCc1ccccc1N1C(=O)NC(=O)/C(=C\c2ccc(N(CC)CC)o2)C1=O	-21.4	-60.0
41	CC(=O)Nc1ccc(NC(=O)C(NC(=O)C2CCCCC2)C(C)C)cc1 (stereo not given)	nt	14.0
42	O=S1(=O)CCC(S(=O)(=O)N2CCCCC2)C1 (stereo not given)	-3.6	nt
43	CCOC(=O)C1=C(CN2C(=O)c3ccccc3S2(=O)=O)NC(=O)NC1c1ccc(OC)cc1 (stereo not given)	nt	-4.0
44	COc1cc(F)nc(N)n1	nt	19.0
45	CC1(C)CC(=NO)CC(C)(C)N1	nt	43.0
46	COc1cc(C(=O)NCCC(=O)NC2CCCCC2)cc(OC)c1OC	nt	-8.0
47	COc1ccc(CC(C)=C(C#N)C#N)cc1OC	7.5	nt
48	CNC(=O)c1cccc(NC(=O)C2=CSCCO2)c1	nt	6.0
49	CO[C@@H]1[C@@H](OC(N)=O)[C@@H](O)[C@H](Oc2ccc3c(O)c(NC(=O)c4ccc(O)c(CC=C(C)C)c4)c(=O)oc3c2C)OC1(C)C	3.6	nt
50	N#C/C(=C\c1cc(Cl)sc1Cl)S(=O)(=O)c1ccccc1	-1.7	nt
51	Cc1cccc(S(=O)Cc2ccc(C(=O)NC3CCCC3)o2)c1 (stereo not given)	nt	16.0
52	O=C(CCn1c(=O)sc2ccccc21)NC1=NCCS1	nt	10.0
53	Cc1ccc(C)n1-c1ccc(Oc2ccc(Br)cc2)cc1	1.5	3.0
54	COc1ccc(C2CC(=O)Nc3cc4c(cc32)OCO4)cc1 (stereo not given)	-6.8	8.0
55	Oc1ccccc1-c1nnc2n1CCCCC2	nt	-5.0
56	Cc1sc2ncn(CC(=O)NCc3ccccn3)c(=O)c2c1S(=O)(=O)N1CC(C)CC(C)C1 (stereo not given)	nt	-31.0
57	CC(=O)NC(C(=O)c1ccccc1)N1CCCCC1 (stereo not given)	nt	7.0
58	O=C(O)CCCSc1nccn1-c1ccccc1	-0.8	nt
59	CN1CCN(S(=O)(=O)c2ccc(Br)c3ccccc23)CC1	0.9	8.0
60	CSc1ccc(C2C3=C(CCCC3=O)Nc3ccc4ccccc4c32)cc1 (stereo not given)	-2.1	4.0
61	O=C(O)CC1C=C(Cl)S(=O)(=O)C1 (stereo not given)	-2.2	0.0
62	CC1CN=C(NC2CCCCC2C)S1 (stereo not given)	nt	2.0
63	Cc1ccc(Cn2c(C(=O)NCc3ccccc3)cc3sccc32)cc1	0.3	15.0
64	O=C1CCCC/C1=C\Nc1ccccc1	-0.3	nt
65	CSc1ncccc1C(=O)OCC(=O)Nc1ccccc1C(=O)NC1CC1	nt	9.0
66	COCCn1c(SCC(=O)NCc2ccc3c(c2)OCO3)nnc1-c1c[nH]c2ccccc12	nt	8.0
67	COc1ccc(OCc2nn3c(C(F)(F)F)nnc3s2)cc1	nt	-3.0
68	COC(=O)c1ccc(OC)nc1	nt	3.0
69	Cc1ccc(/C=C2\SC(=O)NC2=S)o1	81.0*	-10.0
70	C=CC(=O)Nc1ccc(Br)cc1	-0.4	16.0
71	COC(=O)c1ccc(C2Nc3cccc4cccc(c34)N2)cc1	1.9	5.0
72	COC(=O)C1C(c2ccccc2)C(C(=O)O)C1c1ccccc1 (stereo not given)	-1.8	8.0
73	c1ccc(-c2nn(-c3ccccc3)c3c2cnc2ccccc23)cc1	-0.6	13.0
74	O=C(CSCc1ccccc1Cl)N/N=C/c1ccc(O)cc1O	4.3	8.0
75	O=C(O)C1CCCCC1C(=O)N1CCN(S(=O)(=O)c2cccs2)CC1 (stereo not given)	0.8	8.0

New compounds follow
#	compound	MgrA-DNA mod	Sa helicase inh
76	CCCNC(=O)c1ccccc1NS(=O)(=O)Cc1ccccc1	0.6	-14.0
77	O=C(CCCn1ncn2c(cc3occc32)c1=O)NCCc1ccccc1	-2.5	3.0
78	CCO/C=C1/C(=O)N(c2ccc(OC)cc2)C(=O)c2ccccc21	nt	22.0
79	CC(=O)c1cc([N+](=O)[O-])c(Sc2ccc(Cl)cc2)s1	3.8	nt
80	C=CCN1C(=O)/C(=C2\SC(=S)N(CC(=O)O)C2=O)c2cc(Br)ccc21	14.8	9.0
81	N#Cc1cccn1-c1ccccc1F	nt	2.0
82	Cc1ccc2nc(-c3ccc(NC(=O)[C@@H]4CCCC[C@@H]4C(=O)O)cc3)sc2c1	-5.0	14.0
83	CCc1cc(C(=O)O)c(NC(=O)c2cccc(C)c2)s1	1.8	-3.0
84	COc1ccc(-c2cccc(NC(=O)c3ccccc3)c2)nn1	nt	4.0
85	O=C1C2CCC3(CC2C(=O)N1Cc1ccccc1)OCCO3 (stereo not given)	0.3	nt
86	CN1CCCN(C(=O)c2ccccc2Br)CC1	-0.5	-12.0
87	COC(=O)c1ccc(-n2nnnc2SCCCC(=O)c2ccc(F)cc2)cc1	0.3	15.0
88	COc1cccc(-c2cc(C(=O)N(C)c3ccccc3)no2)c1	1.9	7.0
89	CC1CN(C(=O)C2CCCCC2)C(C)CN1C(=O)C1CCCCC1 (stereo not given)	-0.5	2.0
90	COc1ccc(CCn2c(C)cc(C(=O)Cn3cnc4c(oc5ccccc54)c3=O)c2C)cc1	nt	13.0
91	COc1cc(C=C2C(=O)NC(=S)NC2=O)cc(Cl)c1OCCOc1cccc(C)c1	12.0	nt
92	C=CC[n+]1ccc(/C=C/c2ccccc2O)c2ccccc21	2.5	42.0*
93	CCOc1ccc(-n2c(=O)c3sccc3n(CC(=O)NC3CCCC3)c2=O)cc1	0.4	5.0
94	CCCS(=O)(=O)N1CCN(Cc2ccc(OC)c(OCC)c2)CC1	-0.4	6.0
95	CC(C)N(Cc1nnc(-c2ccccc2)o1)C(=O)COc1ccc(C#N)cc1	nt	-20.0
96	CCOCCCNc1nc2nc3ccc(C)cn3c(=O)c2cc1C(=O)NC1CCCCC1	-13.8	0.0
97	CC1(C)CC(NC(=O)Cc2ccccc2)CC(C)(C)N1	-1.8	9.0
98	CCc1nc2ccccc2n1Cc1ccccc1	6.0	2.0
99	Cc1cc(C)c2c(n1)sc1c(=O)n(C(C)(C)C)nnc12	nt	-11.0
100	Cc1ccc(S(=O)(=O)Cc2ccc(C(=O)N3CCC(C(N)=O)CC3)o2)cc1	nt	3.0
101	CC(C)OC(=O)Cn1cc(C#N)c2ccccc21	0.5	0.0
102	CC(C)(C)NC(=O)c1ccccc1C(=O)NC(C)(C)C	0.2	nt
103	Clc1ccc(SCc2csc(N3CCOCC3)n2)cc1	-2.0	nt
104	O=C(CSC1CCCCC1)NC1CCCC1	2.8	2.0
105	O=C1C=CC(=O)N1c1ccccc1	-6.9	11.0
106	Cc1cc(-c2onc(C)c2C(=O)NC(=O)Nc2ccccc2)no1	0.2	nt
107	CCOc1cc(C2C(C(=O)OC(C)CC)=C(C)NC3=C2C(=O)CC(c2ccc(OC)cc2)C3)ccc1O (stereo not given)	3.4	nt
108	CC(=O)OC12CC3C4CC(O1)C1C4CC3C12 (stereo not given)	nt	-11.0
109	CS(=O)(=O)N(CC(=O)O)c1cccc2ccccc12	nt	42.0
110	OC1CN=C2C=CC=CN2C1 (stereo not given)	0.5	1.0
111	O=S(=O)(/N=C1\C=C2N(CCO)CCOC2(O)c2ccccc21)c1ccccc1 (stereo not given)	1.2	13.0
112	COc1ccc2cc1Oc1ccc(cc1)C[C@H]1c3cc(c(OC)cc3CCN1C)Oc1c(OC)c(OC)cc3c1[C@H](C2)N(C)CC3	1.5&0.7	nt
113	Cc1occc1-c1nnc(SCC(=O)c2ccc(OC(F)F)cc2OC(F)F)n1C	nt	-3.0
114	COc1ccc(CC(=O)Nc2ccccc2)cc1	nt	26.0
115	CC(C)(C)c1ccc(NC(=O)NC2CCCc3ccccc32)cc1 (stereo not given)	0.0	nt
116	CCCCN1CN(CCCN2CCCCC2)Cn2c1nc1ccccc12	nt	-7.0
117	CC1(C)CC(=O)c2ccc(OCC(=O)Nc3ccccc3)cc2O1	-0.9	nt
118	COC(=O)CCSCc1cn2cc(Cl)ccc2n1	-3.1	-1.0
119	Cc1ccc(C(=O)N2CCOCC2)cc1C	nt	-17.0
120	Cc1noc(C)c1COc1ncnc2ccccc12	nt	-12.0
121	CCC(=O)Nc1ccc(C(=O)Nc2ccc(OCC(=O)O)cc2)cc1	nt	4.0
122	O=C(C1COc2ccccc2O1)N1CCN(c2ccccc2)CC1 (stereo not given)	0.3	-9.0
123	COc1ccc(NC(=O)Nc2nnc(N(C)Cc3ccccc3)s2)cc1	nt	11.0
124	CN1C/C(=C\c2ccc3c(c2)OCO3)C(=O)/C(=C/c2ccc3c(c2)OCO3)C1	-0.5	6.0
125	O=C1CSc2ccc(C(=O)NCCSCc3ccco3)cc2N1	nt	2.0

Full records from above. Order of values: MgrA-DNA mod	Sa helicase inh
Listed for CC(=O)NC(C(=O)c1ccccc1)N1CCCCC1 (stereo not given) = nt	7.0
Listed for COc1cc(C(=O)NCCC(=O)NC2CCCCC2)cc(OC)c1OC = nt	-8.0

Further compounds follow:
#	compound	MgrA-DNA mod	Sa helicase inh
126	CNC(=O)C1CCN(S(=O)(=O)c2c(C)noc2/C=C/N(C)C)CC1	0.9	-11.0
127	O=C(Oc1ccccc1)n1c(=S)oc2ccccc21	nt	-4.0
128	CCOC(=O)c1cc(-c2ccccc2)n(CC(=O)Nc2nc3ccc(Cl)cc3s2)c1C	0.7	-1.0
129	CCN1C(=O)/C(=C2/C(=O)N3c4c(cc(OC(=O)c5cccs5)cc42)C(C)=CC3(C)C)SC1=S	-1.1	-4.0
